UCH37 DUB inh: human UCH37 deubiquitinating enzyme inhibition | Q9Y5K5 | purified proteasome/UCH37, Ub-AMC cleavage fluorescence | inhibition, % (no concentration beside the values) | 330,000 tested, 0.33% active;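 active = mean of two replicates above 20%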;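 also: 0% = compound-free wells with enzyme and 100% = wells lacking proteasome; stock transfer was 100 nL into about 20 µL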
Target sequence (Q9Y5K5 whole entry, looked up): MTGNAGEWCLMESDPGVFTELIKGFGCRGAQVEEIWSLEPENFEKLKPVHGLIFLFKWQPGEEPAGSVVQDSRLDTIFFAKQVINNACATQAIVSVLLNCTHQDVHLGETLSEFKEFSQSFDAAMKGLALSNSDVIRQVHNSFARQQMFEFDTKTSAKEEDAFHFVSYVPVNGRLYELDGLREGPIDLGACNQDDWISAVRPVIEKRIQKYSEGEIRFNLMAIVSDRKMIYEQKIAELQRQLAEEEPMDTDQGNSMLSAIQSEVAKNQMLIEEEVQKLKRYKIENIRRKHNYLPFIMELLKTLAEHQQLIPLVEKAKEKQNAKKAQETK
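Material: Human UCH37 enzyme supplied as purified proteasome complex | Schedule: 30 min preincubation with enzyme, 25 min cleavage at room temperature | Detection: AMC fluorescence 355/460 nm | Measure: % inhibition of Ub-AMC cleavage fluorescence | Controls: Wells without proteasome as full block, compound-free enzyme plus substrate as uninhibited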
HNF4A DNA FP: change in binding of human HNF4 alpha to DNA | P41235 | HNF4a-FITC DNA binding, fluorescence polarization, 1 h | activity change, % at 10 µM | 360,000 tested, 0.3% active | AID 1224865; in the data active = activity change above about 30%, passing the limit was not always enough;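 also: controls were the assay level and a saturating level of protein; the project sought stronger binding though the title names inhibitors; some compounds called inactive have numbers as strong as hits; positive values seem to mean higher polarization but the record does not say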
Target sequence (P41235 whole entry, looked up): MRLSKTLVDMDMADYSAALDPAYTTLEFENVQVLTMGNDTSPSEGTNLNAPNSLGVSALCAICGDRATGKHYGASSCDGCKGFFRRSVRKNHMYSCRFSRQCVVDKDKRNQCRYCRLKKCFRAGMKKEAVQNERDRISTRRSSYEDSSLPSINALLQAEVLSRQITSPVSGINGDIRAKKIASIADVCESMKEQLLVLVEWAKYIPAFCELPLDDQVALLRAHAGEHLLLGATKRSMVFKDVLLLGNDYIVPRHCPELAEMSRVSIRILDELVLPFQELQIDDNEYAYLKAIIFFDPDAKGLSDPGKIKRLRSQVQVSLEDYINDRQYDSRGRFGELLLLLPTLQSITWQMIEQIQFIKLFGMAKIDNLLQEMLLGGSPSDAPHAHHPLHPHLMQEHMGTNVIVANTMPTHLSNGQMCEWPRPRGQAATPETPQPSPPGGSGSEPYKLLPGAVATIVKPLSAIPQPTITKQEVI
A1 inh: inhibitors of the anti-apoptotic protein A1, read as caspase activation. MEF A1-2A-BIM cells, Caspase-Glo 3/7 luminescence, 3 h; percent of clofoctol response, vehicle zero. caspase activation, % (concentration not given with the values). 330,000 tested, 0.066% active. AID 2462;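 active = over half of replicate activation scores above 10%, or exactly half above 10 with the replicate mean above 10; inconclusive = replicate mean below 10 yet half the replicates above 10; inactive = over half of replicates below 10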;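 also: wells of about 30 µL received 50 nL stock; many hits fall short of the cut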
Vif A3G: inhibitors of Vif binding to APOBEC3G peptide, primary screen, biochemical, TR-FRET, GST-Vif 1-94, biotin-A3G peptide, dose response retest (AID 1117319) | TR-FRET GST-Vif / biotin-A3G peptide binding; higher % means a stronger effect; test concentration not given here; strong numbers were not always called active | one-dose inhibition, %; IC50 in µM for titrated hits | 260,000 tested, 0.57% active;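 active = above the screen mean plus three standard deviations and confirmed in dose response; inconclusive = results disagree or hit not tested in dose response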;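 also: Vif residues 1-94 fused to GST binding biotinylated APOBEC3G peptide 110-148; 0% = full assay without inhibitor and 100% = GST in place of GST-Vif; retest series ran down from 100 µM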
LANA-H2A inh: blocks KSHV LANA binding to histone H2A/H2B; AID 2629; Q9QR71; 320,000 tested, 0.6% active; inhibition, % (concentration not given with the values); cell-free LANA-H2A/H2B peptide, fluorescence polarization; in the data active = inhibition mostly above about 10%, no sharp cut-off; inactive = mostly below about 6.7%;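 also: stock transfer was 7.5 nL into about 10 µL; 0% = median of vehicle wells and 100% = median of positive control wells; one replicate is shown; the record names a cut of 25% in any replicate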
Ecoli growth: blocks Escherichia coli growth; OD600, 23 h; stronger effect = lower value; OD600 absorbance (no concentration beside the values); 330,000 tested, 0.21% active; AID 1053175;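 active = OD600 absorbance below the run mean of sample wells minus 3.6 SD, in any replicate, cut at about 0.56 in these data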;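 also: stock transfer was 300 nL into about 60 µL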
Beta2AR agonist: agonists of human beta-2 adrenergic receptor inducing internalization; P07550; Am2.2-beta2AR cells, FAP receptor internalization, flow cytometry; reference of the scale not given here; response, % (concentration not given with the values); 340,000 tested, 0.43% active;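 active = response above a set limit, near 3 SD of response in nonfluorescent compounds, cut at about 42% in these data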;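 also: stock transfer was 100 nL into about 11 µL; a reference agonist was the positive control; negative values mostly stem from fluorescent compounds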
* = called active by the depositor; ? = inconclusive; . = not tested or not shown; & = joins results of further samples.

SMILES | UCH37 DUB inh | HNF4A DNA FP | A1 inh | Vif A3G | LANA-H2A inh | Ecoli growth | Beta2AR agonist
Cc1ccccc1/C(N)=N/OC(=O)N1c2ccccc2Sc2ccccc21 | -0.5 | -3.0 | 0.9 | 1% | -0.3 | 0.71 | 12
C[C@H](CO)N1C[C@H](C)[C@@H](CN(C)S(C)(=O)=O)Oc2ccc(NC(=O)c3ccncc3)cc2C1=O | 15 | -4.8 | 0.9 | . | 3.2 | . | 0
CCCN1c2cccc3cccc(c23)S1(=O)=O | -38 | -1.9 | 0.5 | -2% | 0.8 | 0.74 | -1
CCC(C)N(C(=O)COC(=O)CN=C1NS(=O)(=O)c2ccccc21)C1CCS(=O)(=O)C1 (stereo not drawn) | -0.2 | -1.6 | -0.1 | 2% | -12 | 0.65 | 2
Cc1nnsc1C(=O)Nc1ccc(S(=O)(=O)N2CCC(C)CC2)cc1 | 1.0 | -0.5 | -1.3 | . | 0.5 | 0.6 | 6
COC(=O)CN(c1ccc(F)cc1)S(=O)(=O)c1ccccc1 | 0.6 | 1.9 | 0.0 | 14% | -2.5 | 0.68 | 6
CC1(C)CC(=O)N(CC(=O)N2CCN(c3ncccn3)CC2)c2ccccc2S1(=O)=O | 0.5 | -1.4 | -0.7 | 6% | 2.5 | 0.73 | 3
CC(C)Nc1c(N)c(=O)oc2ccccc12 | 5.4 | -1.0 | -0.3 | 4% | 1.1 | 0.7 | -10
CC(=O)c1nn(-c2ccc(C)cc2)cc1C(=O)c1cccc(Br)c1 | 6.5 | 3.2 | 0.7 | . | -2.3 | 0.7 | 2
CCOc1ccc(C(=O)NC2CCN(C(=O)N3CCCC3)CC2)cc1 | -1.8 | -3.6 | 2.0 | 21% | -1.9 | 0.71 | -9
Cc1cc(C)c2c(C)[nH]nc2n1 | -1.0 | 2.4 | -5.3 | ? | -5.8 | 0.7 | -1
COc1ccc(N2C(=O)CC(NCc3cccc(F)c3)C2=O)cc1 (stereo not drawn) | 3.2 | 0.3 | 0.0 | -4% | -2.0 | 0.66 | -4
Cc1cccn2c(=O)c(C(=O)NCCCN3CCCCC3C)c(O)nc12 (stereo not drawn) | -40 | 4.2 | 0.6 | . | -1.2 | 0.72 | 1
COc1cccc(NC2c3ccccc3C(=O)N2Cc2ccco2)c1 (stereo not drawn) | 1.6 | 3.5 | 0.1 | 8% | 1.6 | 0.69 | 69*
CC(C)c1ccc(NC(=O)N(CCc2nc3ccccc3[nH]2)C2CCCC2)cc1 | 3.9 | -0.9 | 0.2 | -3% | 2.6 | 0.74 | 1
Cc1ccc(NNC(=O)CCc2ccccc2)c(C)c1 | 1.0 | -3.2 | 0.6 | -2% | -0.1 | 0.67 | -4
Fc1ccc(-c2[nH]ncc2CN(CC2CCC2)CC2CCCO2)c(F)c1 (stereo not drawn) | 3.0 | 0.9 | 0.3 | . | -0.8 | 0.69 | -3
Cc1ccc(S(=O)(=O)NC(=O)COc2ccc([N+](=O)[O-])cc2)cc1 | 5.5 | -2.8 | -0.3 | -2% | 6.3 | 0.68 | -1
CCOC(=O)C1=NN(c2ccc(C)cc2)C2(S1)SC(C(C)=O)=C(C)N2c1ccccc1 (stereo not drawn) | 3.9 | -1.9 | 0.1 | -2% | 2.8 | 0.71 | 8
O=C(O)c1nn(CC(=O)N(C2CCCCC2)C2CCCCC2)c(=O)c2ccccc12 | -0.5 | 2.0 | 0.3 | -3% | -4.8 | 0.69 | 28
CC1CCN(S(=O)(=O)c2ccc(C(=O)NC3CCS(=O)(=O)C3)cc2)CC1 (stereo not drawn) | 1.6 | 0.7 | -0.5 | -3% | 0.1 | 0.7 | -2
Cc1ccc2nc(SCC(=O)Nc3ccc(Br)cc3)nc(=O)n2c1 | . | -1.4 | 1.2 | . | -3.4 | . | 10
O=C(Nc1cccc(S(=O)(=O)N2CCOCC2)c1)c1cnccn1 | -1.1 | -6.5 | 1.4 | -2% | -1.4 | 0.64 | -1
Cn1cc(S(=O)(=O)NC2CCCC2)c(=O)n(C)c1=O | 2.0 | 1.0 | 0.6 | 4% | -1.5 | 0.66 | -3
COc1ccccc1C/C(N)=N/OC(=O)c1cccc([N+](=O)[O-])c1C | 0.6 | 3.9 | 1.2 | -2% | -1.8 | 0.68 | 1
N=c1oc2cc(O)ccc2cc1C(=O)Nc1ccccn1 | . | . | -4.8 | 10% | 3.0 | . | .
CC(=O)c1cccc(NC(=O)Nc2ccccc2)c1 | 1.0 | 0.8 | -2.0 | 3% | -4.0 | 0.64 | 1
CCS(=O)(=O)N1CCN(c2ccc([N+](=O)[O-])c(NCC3CCCO3)c2)CC1 (stereo not drawn) | 14 | -0.7 | 1.3 | -7% | -1.5 | 0.68 | -18
O=c1cc([O-])[n+]2c3n1CCCN3CCC2 | 1.4 | -0.1 | -0.3 | . | -5.5 | 0.69 | 13
CC1=CC(=O)CC(C)(C)C1(O)/C=C/C(C)=C/C(=O)O (stereo not drawn) | 0.8 | -0.1 | -0.4 | -9% | 1.0 | 0.77 | 12
O=[N+]([O-])c1ccc(N2CCCCC2)cc1SCCO | 6.5 | -0.9 | 0.7 | -6% | 4.3 | 0.7 | 8
CC(=O)N1CCN(S(=O)(=O)c2cccc(C(=O)Nc3ccccc3N3CCCC3)c2)CC1 | 1.8 | 0.5 | 1.1 | ? | -1.6 | 0.66 | 1
Cc1ccc(S/C(=N\S(=O)(=O)c2ccc(Cl)cc2)c2ccccc2)cc1 | . | -4.5 | -0.4 | 4% | 3.1 | . | 15
Cc1[nH]c2ccccc2c1C(=O)C(C)OC(=O)C1CCC1 (stereo not drawn) | 0.8 | -1.2 | -0.4 | 0% | -4.7 | 0.62 | -4
COc1ccc(-c2nnc(SCc3csc(N)n3)n2C)cc1 | 1.8 | 37* | 0.0 | 5% | -8.5 | 0.7 | -3
Cc1cc(C)cc(OCC(=O)NC2CCCc3ccccc32)c1 (stereo not drawn) | 2.2 | -0.4 | 0.2 | -3% | . | 0.64 | -18
Nc1nc(CSc2ncccn2)nc(Nc2ccccc2)n1 | 5.2 | 2.8 | -0.1 | -6% | 2.8 | 0.65 | -16
O=C(Nc1cccc(NC(=O)c2ccc(Cl)cc2)n1)c1ccc(Cl)cc1 | -1.7 | 5.0 | 0.3 | -5% | -3.5 | 0.67 | 4
COC(=O)c1c(C)[nH]c(C(=O)NCCc2ccc(S(N)(=O)=O)cc2)c1C | -17 | -2.2 | 0.4 | . | 1.5 | 0.7 | -1
Clc1ccc(C2CC(c3cccs3)n3ncnc3N2)cc1 (stereo not drawn) | 1.6 | -0.6 | -0.2 | 11% | -1.6 | 0.68 | 1
CN1CCc2cc(O)c(O)cc2C(c2ccccc2)C1 (stereo not drawn) | -0.5 | 6.1 | 0.0 | . | -1.2 | 0.7 | 1
COc1cccc(CC(=S)N2CCOCC2)c1 | 0.3 | -3.1 | 1.2 | 3% | 9.1 | 0.66 | 1
CCc1ccc(CN2C(=O)c3ccccc3C2C(=O)NCc2cccnc2)cc1 (stereo not drawn) | 6.2 | 0.0 | 0.6 | -13% | 2.9 | 0.68 | -4
CCCCCCCn1c(=O)c(C(=O)OC)c(N)c2ccccc21 | 1.6 | -2.1 | -1.1 | 25% | 2.0 | 0.7 | -12
COc1ccc2c(c1)CCc1c(C(=O)Nc3cc(C)n(Cc4ccc(Cl)cc4)n3)noc1-2 | -41 | -5.0 | ? | -4%&-15% | -1.8 | 0.71 | 1

Next part; the last six above are carried over.
SMILES | UCH37 DUB inh | HNF4A DNA FP | A1 inh | Vif A3G | LANA-H2A inh | Ecoli growth | Beta2AR agonist
Clc1ccc(C2CC(c3cccs3)n3ncnc3N2)cc1 (stereo not drawn) | 1.6 | -0.6 | -0.2 | 11% | -1.6 | 0.68 | 1
CN1CCc2cc(O)c(O)cc2C(c2ccccc2)C1 (stereo not drawn) | -0.5 | 6.1 | 0.0 | . | -1.2 | 0.7 | 1
COc1cccc(CC(=S)N2CCOCC2)c1 | 0.3 | -3.1 | 1.2 | 3% | 9.1 | 0.66 | 1
CCc1ccc(CN2C(=O)c3ccccc3C2C(=O)NCc2cccnc2)cc1 (stereo not drawn) | 6.2 | 0.0 | 0.6 | -13% | 2.9 | 0.68 | -4
CCCCCCCn1c(=O)c(C(=O)OC)c(N)c2ccccc21 | 1.6 | -2.1 | -1.1 | 25% | 2.0 | 0.7 | -12
COc1ccc2c(c1)CCc1c(C(=O)Nc3cc(C)n(Cc4ccc(Cl)cc4)n3)noc1-2 | -41 | -5.0 | ? | -4%&-15% | -1.8 | 0.71 | 1
CC(CNC(=O)Cn1ccc(NC(=O)OCc2ccccc2)nc1=O)c1ccccc1 (stereo not drawn) | 4.5 | 11 | 0.8 | . | -1.1 | 0.7 | 0
Cn1c2ccccc2c2ncn(CCC3=CCCCC3)c(=O)c21 | -20 | 0.6 | -3.0 | -6% | 7.9 | 0.71 | -28
COc1ccc(COC(=O)CCNC(=O)c2ccc(Cl)cc2)cc1 | 0.2 | -0.5 | -0.1 | -2% | -1.0 | 0.65 | 4
Cc1ccc(S(=O)(=O)N(C)CC(=O)Nc2ncccc2C)cc1 | 3.3 | 0.1 | -0.3 | -2% | 3.7 | 0.65 | -11
O=[N+]([O-])c1cc(S(=O)(=O)N2CCOCC2)ccc1NS(=O)(=O)c1ccccc1 | -0.5 | 4.6 | 0.0 | -2% | 0.6 | 0.61 | 1
COc1ccc(/C=N/Nc2cc(N3CCOCC3)ncn2)c(OC)c1 | . | -6.0 | 1.0 | . | 1.7 | . | 0
COC1=Cc2c(ccc3ccc(=O)oc23)OC1(C)C | 0.8 | -1.5 | -0.8 | -1% | -0.6 | 0.71 | 0
O=C(Cn1c(=O)n(CCCCC(=O)NC2CCCC2)c(=O)c2ccccc21)NCCC1=CCCCC1 | 1.6 | -3.4 | 1.2 | -2% | -0.7 | 0.76 | -11
Cc1cccc(-n2[nH]c(C)c(C=Nc3ccc4[nH]c(=O)[nH]c4c3)c2=O)c1 | 5.2 | 3.5 | -0.6 | 10% | -6.6 | 0.72 | 12
COC(=O)c1cc(-c2c(C)nn(-c3ccccc3)c2C)n[nH]1 | 0.5 | 1.6 | -0.9 | 22% | 1.0 | 0.8 | -9
COC(=O)Cn1cnc2c(Cl)nc(F)nc21 | 3.4 | 3.4 | . | . | . | 0.69 | 2
CCN(c1ccccc1)S(=O)(=O)c1cc2c(cc1C)n(C)c(=O)c(=O)n2C | 2.8 | 0.8 | 0.1 | 2% | -3.5 | 0.72 | -2
Cc1ccc(C)c(NC(=O)C2CCCC2)c1 | 4.9 | 3.2 | -0.5 | . | -3.9 | 0.69 | -1
Cc1nn2c(N3CCN(C4CCCC4)CC3)cc(C(C)(C)C)nc2c1-c1ccccc1 | -26 | -1.7 | -0.5 | -1% | 12 | 0.64 | 4
Cc1cc(OCC(=O)OCC(=O)c2c(N)n(C)c(=O)n(C)c2=O)ccc1Cl | -0.2 | 1.4 | -0.4 | -17% | 1.1 | 0.67 | -1
COc1ccccc1N1C(=O)[C@@H]2C(C(=O)CN3C(=O)c4ccccc4C3=O)=NN[C@@H]2C1=O | 1.8 | -2.0 | -0.3 | 16% | 32* | 0.7 | -4
COc1ccccc1C(CNC(=O)CN1C(=O)NC(C)(c2ccc3ccccc3c2)C1=O)N1CCCC1 (stereo not drawn) | 4.3 | -1.8 | . | . | . | 0.69 | 7

Screening results as filed in PubChem.
